YjeE inh: inhibitors of E. coli YjeE (TsaE). 0.05% of 71,000 active. purified YjeE, fluorescence polarisation of a bound ADP probe. AID 605. Potency, µM; active = well fitted falling curve; inconclusive = weaker or top-dose-only fall, or a rising curve; inactive = flat or poorly fitted curve;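 also: top concentration of the series not given in the record; excess ADP was the control for the full effect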
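Fluorescence polarization of a BODIPY Texas Red–ADP probe (2 uM) bound to purified YjeE (10 uM) was read after 15 min room-temperature incubation with compounds. Loss of polarization marks inhibitors; ADP serves as titrated control.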
Bst PK mod: alters activity of Bacillus stearothermophilus pyruvate kinase; partly purified Bacillus stearothermophilus pyruvate kinase, luminescence ATP production; ribose 5-phosphate activator present at AC10; Potency, µM; 1.2% of 51,000 active; AID 361; in the data active means potency below about 11 µM; inconclusive means mostly about 12 µM to 25 µM; inactive means weaker than that;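 the screen sought inhibitors and activators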;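 also: potency is read from the fitted curve at half-maximal effect; scaled between full activation by ribose 5 phosphate and full inhibition by luteolin; about four in five hits inhibit and the cells do not say which; series up to 57 µM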
Numbers without * were called inactive; i = inactive; x = not tested or not shown. The list is partial (hit frequency here may not be typical).

SMILES | YjeE inh | Bst PK mod
Cc1cc(OCC(=O)Nc2ccc3c(c2)OCCO3)ccc1Cl | i | >11.4
Cc1ccc(-n2c(SCC(=O)N3CCOCC3)nnc2-c2ccncc2)cc1 | i | >57
CC(C)n1c(NCc2cc(Cl)ccc2O)nc2ccccc21 | i | x
Cc1ccnc(-n2c(CCN3C(=O)c4ccccc4C3=O)nc3ccccc3c2=O)c1 | i | >57
CCOC(=O)C1CCN(c2nc(-c3ccccc3)nc3c2oc2ccccc23)CC1 | i | i
COc1ccc(CN2C(=O)c3ccccc3C2C(=O)NCC2CCCO2)c(OC)c1 (configuration not stated) | i | >57
CC(C)(C)n1nnnc1C(c1ccccc1F)N1CCN(C2CCCC2)CC1 (configuration not stated) | i | >57
CCOC(=O)c1ccc2c(c1)N(Cc1ccccc1C)C(=O)c1ccccc1S2=O (configuration not stated) | i | >57
Cc1ccc(C2/C(=C(/O)c3cnn(-c4ccccc4)c3C)C(=O)C(=O)N2CCN2CCOCC2)o1 (configuration not stated) | x | >25.6
Cc1ccc(O)c(NC(=O)CCCC(=O)O)c1 | i | >57
Cc1cc(C)cc(NC(=O)CSc2nc3c(c(=O)n2C)SC(C)C3)c1 (configuration not stated) | i | x
Cc1ccccc1-c1nc2ccccc2c(=O)n1C1CCS(=O)(=O)C1 (configuration not stated) | i | >57
COc1cc(OC)cc(-c2nnc(SCC(=O)N3CCCc4ccccc43)o2)c1 | i | >57
CC(=O)N1CCC2(CC1)CCN(C(=O)Nc1cccc(F)c1)CC2 | i | x
CCC1(C)CC(CC(=O)O)(c2ccccc2OC)CCO1 (configuration not stated) | i | x
C=CCNC1=C(Cl)C(=O)N(c2ccccc2Cl)C1=O | i | >57
Cc1cc(C)cc(OCc2nnc(SCC(=O)c3ccc(Br)cc3)o2)c1 | i | >57
CCOc1ccc(-c2nc(CSc3nncs3)cs2)cc1OC | i | i
CCc1ccccc1OCC(=O)Nc1ccc(S(N)(=O)=O)cc1 | i | >57
CS(=O)(=O)Nc1ccc(C(=O)NCc2ccccn2)cc1 | i | >57
Cc1ccc(N2C(=O)c3ccccc3C2(O)c2ncc[nH]2)cc1 (configuration not stated) | i | x
CC1CCCCC1NC(=O)Cn1[nH]c(=O)c2ccccc2c1=O (configuration not stated) | i | >57
N[C@@H](CNO)C(=O)O | i | x
CC(=O)c1cccc(NC(=O)Nc2ccc(C(=O)N3CCCC3)cc2)c1 | i | x
CC(=O)OC1CSc2nc3ccccc3n2C1 (configuration not stated) | i | >57
COc1ccc(C2OC(=O)c3ccccc3S2)cc1 (configuration not stated) | i | x
Cc1ccc(C(=O)CSc2nnc(CNc3ccc(C)cc3C)n2Cc2ccco2)cc1 | i | >57
COC(=O)C(Nc1nccs1)(OC)C(F)(F)F (configuration not stated) | i | >57
CC(=O)c1c(C)[nH]c(C(=O)NCCCN2CCCC2)c1C | i | >57
COc1ccc(C2N(c3cc(Cl)ccc3OC)C(=O)C3CCCN32)cc1OC (configuration not stated) | i | x
O=C(CCC(=O)OCC(F)(F)C(F)F)Nc1ccc(Cl)cc1 | i | x
Cc1ccc(-c2nnn(CC(=O)O)n2)cc1 | i | >57
CCOC(=O)c1c(-c2cccs2)csc1NC(=O)c1ccco1 | i | >57
CC(C)CCn1c(CN2CCOCC2)nc2c1c(=O)n(C)c(=O)n2C | i | x
CCC(=O)NCCNC(=O)c1c(SC)nsc1SC | i | >57
c1ccc(-c2noc(CSc3nnnn3-c3ccccc3)n2)cc1 | i | x
O=C(CSc1nnnn1Cc1ccccc1)Nc1ccc2c(c1)OCCO2 | i | >57
O=C(CCCC(=O)N(CC(=O)NC1CCCCC1)Cc1ccco1)Nc1ccccn1 | i | >57
O=C(O)c1ccccc1C1c2ccccc2Oc2ccccc21 | i | x
COc1cccc2sc(Nc3nc(-c4ccccn4)cs3)nc12 | i | x
COc1ccc(NC(=O)CN(c2cccc(F)c2)S(C)(=O)=O)cc1OC | i | >57
CCCCCCCCCCCCCCC1CO1 (configuration not stated) | i | x
CCC1CCCCN1CC(=O)c1c(C)[nH]c2ccccc12 (configuration not stated) | i | >57
NC(=O)C1(N2CCCCC2)CCN(c2nc(-c3ccccc3)cs2)CC1 | i | >57
Cc1ccc(Cn2c(=S)[nH]c3ccc(N4CCOCC4)cc3c2=O)o1 | i | >57
O=C1N(CN2CCC3(CC2)OCCO3)c2ccccc2C12OCCCO2 | i | >57
CCSc1nnc(NC(=O)CSc2nccn2-c2cc(C)cc(C)c2)s1 | i | >57
Cc1noc(C)c1COc1cccc(C(=O)Nc2ccc(C#N)cc2)c1 | i | >57
COc1cccc(-c2cc(C(=O)N3C(C)CCCC3C)no2)c1 (configuration not stated) | i | x
CSCCC=O | i | x
Cc1cccc(C#N)c1NC1=CC(=O)CC(C)(C)C1 | i | >57
COc1ccc2c(c1)C(=O)OC2CC(=O)O (configuration not stated) | i | >57
CCN(CC)CC(=O)n1c2c(c3ccccc31)CCCC2 | i | x
c1csc(Cc2nc(-c3ccc(-n4cccc4)cc3)no2)c1 | i | x
c1ccc(Cc2nn3c(COc4ccccc4)nnc3s2)cc1 | i | >57
CCOC(=O)CCC(=O)c1c(C)oc2ccc(OC)cc12 | i | x

Entries of single compounds from above:
CCOC(=O)CCC(=O)c1c(C)oc2ccc(OC)cc12 is listed with YjeE inh: i; Bst PK mod: x
c1csc(Cc2nc(-c3ccc(-n4cccc4)cc3)no2)c1 is listed with YjeE inh: i; Bst PK mod: x

(list continues)
SMILES | YjeE inh | Bst PK mod
CCC(=O)Nc1cc2c(cc1C(=O)CC)OCCO2 | i | x
CCN(CC)CCCNC(=O)c1nn(-c2ccccc2OC)c(=O)c2ccccc12 | i | >57
CC(=O)Nc1nonc1-c1nc2ccccc2n1Cc1nnc(C)o1 | i | x
COCCCNC(=O)Cn1nc(-c2ccc(C)cc2)ccc1=O | i | >57
CC1(C)Cc2c(C#N)c(SCC(=O)c3ccccc3)nc(N3CCCC3)c2CO1 | x | >25.6
O=C(C1CCCCC1)N1CCCC(c2nc3c(nnn3Cc3ccccc3)c(=O)[nH]2)C1 (configuration not stated) | i | >57
O=C(O)c1cccc(-n2cnnn2)c1 | i | x
O=C(CSc1nnc(-c2ccco2)n1Cc1ccccc1)c1ccc(F)cc1 | i | >57

Some of these compounds in order of formula weight, low to high.
SMILES | YjeE inh | Bst PK mod
O=C(O)c1cccc(-n2cnnn2)c1 | i | x
CC(=O)Nc1nonc1-c1nc2ccccc2n1Cc1nnc(C)o1 | i | x
O=C(CSc1nnc(-c2ccco2)n1Cc1ccccc1)c1ccc(F)cc1 | i | >57
CC1(C)Cc2c(C#N)c(SCC(=O)c3ccccc3)nc(N3CCCC3)c2CO1 | x | >25.6
CCN(CC)CCCNC(=O)c1nn(-c2ccccc2OC)c(=O)c2ccccc12 | i | >57

Next part.
SMILES | YjeE inh | Bst PK mod
Cc1nc(SCC(=O)OCc2ccccc2)c2c(=O)n(C)c(=O)n(C)c2n1 | i | x
CCOc1nc(SCCOc2ccc(C)cc2)nc(N(C)C)n1 | x | >25.6
O=C(O)Cn1nc(-c2ccc(F)cc2)oc1=O | i | >57
CCCOc1ccc(C2NC(=O)NC2=O)cc1 (configuration not stated) | x | >11.4
CCn1c(SCC(=O)Nc2ccc(NC(=O)c3cccs3)cc2)nnc1-c1cccnc1 | i | >57
COc1cccc(N2CCN(Cc3nc(N)nc(Nc4ccccc4OC)n3)CC2)c1 | i | >57
CCOc1ccc(CC(=O)N2CCN(c3ccc(N4CCOCC4)nn3)CC2)cc1OCC | i | x
COc1cc2c(cc1NC(=O)CN1C(=O)NC3(CCc4ccccc43)C1=O)oc1ccccc12 (configuration not stated) | i | >57
O=C(O)CCCC(=O)Nc1nc2n(n1)C(c1ccc(F)cc1)CC(c1ccc(Cl)cc1)N2 (configuration not stated) | i | >57
CC1Cc2ccccc2N1C(=O)CN1C(=O)NC(C)(c2ccc3c(c2)OCCO3)C1=O (configuration not stated) | i | >57
Cc1nc(CNS(=O)(=O)c2ccc3ccccc3c2)cs1 | i | x
CCN1CCN(C(=O)N[C@H](C(=O)N[C@@H]2C(=O)N3[C@@H]2SC(C)(C)[C@@H]3C(=O)O)c2ccccc2)C(=O)C1=O | i | x
O=C(CN1C(=O)COc2ccccc21)c1ccc(Cl)cc1 | i | x
Cc1noc(C)c1C(=O)OCC(=O)c1c[nH]c2ccccc12 | i | x
O=C(O)[C@H](Cc1cc(I)c(O)c(I)c1)C1CCCCC1 | i | x
COc1ccc(C)cc1NC(=O)c1nc2nc(C)cc(C)n2n1 | i | >57
CN1CCCC(OC(=O)CCCCC(=O)OC2CCCN(C)C2)C1 (configuration not stated) | i | >57
COc1cc(OC)cc(C(=O)N2CCC(N3CCN(c4ccccc4)CC3)CC2)c1 | x | >11.4
CN(C)C(CN1C(=O)C2CC=CCC2C1=O)c1cn(C)c2ccccc12 (configuration not stated) | x | >25.6
O=C(C1CCN(S(=O)(=O)N2CCOCC2)CC1)N1CCOCC1 | i | >57
CCOc1ccccc1NC(=O)CSc1nnc(Cn2c(=O)sc3ccccc32)n1C | i | x
CCOC(=O)C1C(=O)NC(SCC(=O)OC)=C(C#N)C1c1ccccc1OCC (configuration not stated) | i | >57
COC(=O)CC1Oc2ccc(C)cc2NC1=O (configuration not stated) | i | x
O=C(C1CCCN1S(=O)(=O)c1cccc2cccnc12)N1CCc2ccccc2C1 (configuration not stated) | i | x
CCCCNc1nc(C)nc2c1nc(-c1ccccc1)n2CCCN(CC)CC | i | x
OC(CCCCN1CCCCC1)c1ccccc1 (configuration not stated) | i | >57
CCOC(=O)c1c(C)[nH]c(C)c1C(=O)CSc1nnc(-c2ccncc2)n1C | i | >57
COc1ccc(C(C)=O)cc1COC(=O)c1cccc(N(C)C)c1 | i | i
Cn1c(Cn2nnc3ccccc32)nnc1SCC(=O)N1CCc2ccccc21 | i | >57
COc1cccc(N2CCN(S(=O)(=O)c3ccc4nc(-c5ccccc5)[nH]c4c3)CC2)c1 | i | >57
NC(=O)C1(N2CCCCC2)CCN(S(=O)(=O)c2cc(Cl)ccc2Cl)CC1 | i | x
Brc1ccc(-c2nn3c(-c4ccncc4)nnc3s2)o1 | i | x
COc1ccc(-c2noc(CCCC(=O)NCCc3ccccc3)n2)cc1OC | i | >57
C=C(C)Cn1c(CCNC(=O)CC)nc2ccccc21 | i | >57
Cc1ccc(-c2cnc(N)n2C)cc1C | i | >57
Cc1onc(-c2ccccc2)c1C(=O)N1CCN(C/C=C/c2ccccc2)CC1 | i | x
O=S(=O)(c1ccc(OCC(O)CN2CCc3ccccc3C2)cc1)N1CCOCC1 (configuration not stated) | i | >57
CCOC(=O)c1oc2ccccc2c1NC(=O)c1cccc(OC)c1OC | i | >57
CC(C)Cn1c(N)c(S(=O)(=O)c2cccs2)c2nc3ccccc3nc21 | i | >57
CCc1ccc2[nH]cc(C(=O)OCCOC)c(=O)c2c1 | i | x
Cc1ccc(C)c(C(C)NC(=O)C2C3CCC(O3)C2C(=O)O)c1 (configuration not stated) | i | >57
NC(=O)c1ccc(N2CCCCC2)c(N2C(=O)CCC2=O)c1 | i | x
CCOc1ccc(NCC(=O)Nc2ccc(C)cc2C)cc1 | i | >57
Cc1sc(NC(=O)CSc2nnc(COc3ccccc3)n2C)c(C#N)c1C | i | >57
COc1cc(-c2nc3cnccn3c2Nc2ccccc2)ccc1O | i | x
CCOc1ccc(-n2nnc3c(=O)n(CC(=O)c4ccccc4)cnc32)cc1 | i | x
FC(F)(F)c1cccc(N2Cc3ccccc3C2)c1 | i | >57
Cc1nc2ccccc2c(=O)n1/N=C/c1ccncc1 | i | x
Cc1ccc(C(=O)Nc2ccccc2N2CCN(C(=O)C(C)C)CC2)cc1 | i | >57
CC(C)NS(=O)(=O)c1ccc(OCC(=O)Nc2ccc3c(c2)OCCO3)cc1 | i | >57
COc1ccccc1OCC(=O)N(Cc1nc(-c2ccc(Cl)cc2)no1)C(C)C | i | x
COC(=O)C(Cc1cnc[nH]1)NC(=O)C1CCC(=O)N1 (configuration not stated) | i | >57
O=C(O)CN1C(=O)CSc2ccccc21 | i | >11.4
CCOc1nc(-c2ccc(C)cc2)ccc1-c1noc(COC)n1 | i | x
COc1cc2c(cc1OC)CN(C(=O)CSc1nc(N)c(C#N)cc1C#N)CC2 | i | >57
CC1=[N+]([O-])C(N2CCOCC2)C(O)(c2ccccc2)C1 (configuration not stated) | i | >57

New compounds follow
SMILES | YjeE inh | Bst PK mod
CCc1c(C)nc(N)n2c(SCC(=O)N3CCN(c4ccccc4OC)CC3)nnc12 | i | >57
CCn1c(SCc2nc(CC(=O)Nc3ccccc3OC)no2)nnc1-c1cccs1 | i | >57
CCOC(=O)C1=C(c2ccccc2)N(C)C(=O)NC1c1ccc(O)c(OC)c1 (configuration not stated) | i | >57
O=C(O)c1ccc2c(c1)CC(c1ccccc1)OC2=O (configuration not stated) | i | >57
COC(=O)c1ccc(CSc2nnc(-c3ccncc3)o2)o1 | i | >57
Cc1c(N2CCCC2)cc2c(c1NC(=O)c1ccccc1Cl)C(C)(C)CC2(C)C | i | x
CCCS(=O)(=O)N1CCC(C(=O)NCCCOCC)CC1 | i | >57

Screening data (PubChem)
